Screens: PubChem, National Center for Advancing Translational Sciences (NCATS)
VDR inh – blocks the human vitamin D receptor; P11473; VDR-SRC2-3 peptide fluorescence polarization, 2 h; Potency, µM, without a hit: max response, negative = inhibition, most hits filed as inhibitors; 0.93% of 400,000 active; AID 504847; active means well fitted inhibition curve with a large enough effect; inconclusive means small, poorly fitted or top-dose-only effect, or another doubt; inactive means no such curve, though single readings can be large or run the other way; further: series mostly up to about 120 µM
Target sequence (P11473 whole entry, looked up): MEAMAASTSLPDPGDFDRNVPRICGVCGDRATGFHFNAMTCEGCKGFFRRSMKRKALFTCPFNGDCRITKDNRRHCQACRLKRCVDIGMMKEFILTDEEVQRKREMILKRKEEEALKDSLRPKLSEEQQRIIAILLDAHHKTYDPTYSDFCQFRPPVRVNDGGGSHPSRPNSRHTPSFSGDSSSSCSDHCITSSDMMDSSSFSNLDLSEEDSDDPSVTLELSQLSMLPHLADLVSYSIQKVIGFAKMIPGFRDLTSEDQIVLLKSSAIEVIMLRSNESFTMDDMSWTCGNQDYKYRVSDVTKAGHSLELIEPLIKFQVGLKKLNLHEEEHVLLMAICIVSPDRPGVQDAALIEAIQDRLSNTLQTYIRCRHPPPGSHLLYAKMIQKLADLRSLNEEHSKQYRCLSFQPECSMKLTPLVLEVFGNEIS
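The screen uses fluorescence polarization to detect compounds that interfere with recruitment of the SRC2-3 coactivator peptide to VDR; plates are read after 2 h at room temperature.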
* marks the source's active call; other numbers are inactive results; ? = inconclusive; [ ] = another dose, or the depositor's remark. On the % scale 0 is the no-effect control and ±100 the full control effect; potency means the concentration at half of the fitted maximal effect. Only part of the results is shown; the hit share may differ from the screen's.

SMILES	VDR inh
Cc1oc(=O)c(NC(=O)c2cccc(Cl)c2)cc1C(=O)c1ccccc1	39.8µM*
O=C(CSc1ncnc2ccccc12)N1CCCC1	1.4%
N#Cc1c(SCc2ccccc2)sc(C(=O)c2ccccc2)c1N	-3.2%
COC(=O)C1=C(C)N(C)C(C)=C(C(=O)OC)C1c1ccc(C(=O)OC)cc1	-4.8%
C=CCN(C(=O)c1csnn1)C(C(=O)NC1CCCC1)c1ccccc1 (configuration not stated)	-9.4%
O=C(CSc1nnc(-c2c[nH]c3ccccc23)o1)N(Cc1ccccc1)c1ccc(F)cc1	9.9%
O=C(NCc1ccc(C(F)(F)F)cc1)C1CC(c2cccc(F)c2)=NO1 (configuration not stated)	-1.1%
COc1ccc(CNC(=O)CCS(=O)(=O)Cc2cccc(Cl)c2)c(OC)c1	-7.0%
COc1ccc(NC(=O)COc2coc(CN3CCc4ccccc43)cc2=O)cc1	7.4%
Cc1ccc(NC(=O)C2CCCN(C3=NS(=O)(=O)c4ccccc43)C2)c(O)c1 (configuration not stated)	-2.4%
Cc1ccc(NC(=O)COC(=O)[C@H](C)NC(=O)c2ccccc2)cc1S(=O)(=O)N1CCOCC1	-16.1%
N#Cc1c[nH]n2c(NC3CCCCC3)c(-c3cccc(Cl)c3)nc12	16.2%
COc1ccc(CNC(=O)C(c2ccco2)N(Cc2ccccc2)C(=O)Cc2cccs2)cc1 (configuration not stated)	6.6%
Cc1ccc(NC(=O)c2cc(S(=O)(=O)N3CCCCCC3)ccc2F)cc1F	1.1%
O=C1CC(c2ccco2)CC(O)=C1C=Nc1cc(Cl)ccc1O (configuration not stated)	-14.8%
Cc1ccc2c(cnn2C(=O)CCC(=O)NCc2ccccc2Cl)c1	-21.6%
COC(=O)C1=C(C)N(C(C)c2ccccc2)C(=O)/C1=C\c1ccco1 (configuration not stated)	-23.6%
O=C(Nc1ccc(-n2cnnn2)cc1)C1CCC1	-17.8%
CCCCOC(=O)C1=C(C)Nc2ncnn2C1c1cccc(OC)c1 (configuration not stated)	-9.6%
COc1ccc(C(=O)OCC(=O)NCc2ccc3c(c2)OCO3)cc1[N+](=O)[O-]	0.0%
CCOc1cc(CNc2ncc(-c3ccc(OC)cc3)n2C)ccc1O	-3.6%
O=C(c1cc2cc(F)ccc2[nH]1)N1CCN(c2ccc(F)cc2)CC1	14.7%
Cc1ccc(SCCC(=O)N(C)C)cc1	-7.2%
COc1ccc(NC(=O)/C(C#N)=C\c2ccc(-c3cc(C(=O)O)ccc3C)o2)cc1	17.8%
O=C(C[C@H]1C/C=C\CC[C@H](Cc2ccc(F)cc2)C(=O)O[C@H](c2ccccc2)CNC1=O)N[C@H](CO)Cc1ccccc1	5.5%
N#CCCN(CCC#N)c1nnc(-c2ccccc2)s1	30.1%[activator]
CCOc1ccc2c(c1)-c1c(ssc1=S)C(C)(C)N2C	-17.5%
Cc1ccc2nc(-c3ccc(C)o3)c(Nc3ccc4c(c3)OCCO4)n2c1	-9.0%
O=C(Cn1ncc2c3ccccc3n(Cc3ccccc3)c2c1=O)NCc1ccccc1	13.8%
Cc1cc(NC(c2ccc(Cl)cc2)c2ccc3cccnc3c2O)no1 (configuration not stated)	19.3%
Nc1nc2c(s1)CCCCCCCCCC2	-2.6%
OCCN(CC#CC(O)(c1ccccc1)C1CCCCC1)CCO (configuration not stated)	-9.9%
Cc1cccc(CC(=O)OCn2nnc3ccccc3c2=O)c1	-16.5%
O=C(CN1CCN(S(=O)(=O)c2ccc(Cl)cc2)CC1)N1CCCC1	11.3%
CCCCNS(=O)(=O)c1ccc2nc(SCC(=O)c3ccc(C#N)cc3)[nH]c2c1	-0.4%
Cc1cc(C)c(NC(=O)Nc2ccc3c(c2)OCO3)c(C)c1	16.3%
Cc1cc(-c2cc(C(=O)NCc3ccccc3)on2)nc(NC2CCCC2)n1	-9.3%
Cn1nc(-c2ccc(C(=O)Nc3cccc(Cl)c3)cc2)c2ccccc2c1=O	10.3%
Cc1cc(C(C)(C)C)ccc1OCCN(C)C	?
O=[N+]([O-])c1ccc(C[n+]2cccc3ccc4cccnc4c32)cc1	79.4µM*
CCOC(=O)c1ccc(NC(=O)c2nc[nH]c2C(=O)NC)cc1	-18.2%
COC(=O)c1cn(C(=O)c2ccc(C)c(C)c2)c2ccccc12	17.1%
COc1cc(/C=C/C(=O)O)cc(S(=O)(=O)NCCCO)c1OC	-11.3%
COC(=O)c1sc(NC(=O)c2cccc([N+](=O)[O-])c2)c(C(N)=O)c1C	-25.6%
CCOC(=O)c1ccc(NC(=O)CS(=O)(=O)c2cn(CC)c3ccccc23)cc1	15.6%

Taken from above.
In VDR inh, OCCN(CC#CC(O)(c1ccccc1)C1CCCCC1)CCO (configuration not stated) is listed with -9.9%
In VDR inh, Cc1cc(-c2cc(C(=O)NCc3ccccc3)on2)nc(NC2CCCC2)n1 is listed with -9.3%
In VDR inh, COc1ccc(CNC(=O)CCS(=O)(=O)Cc2cccc(Cl)c2)c(OC)c1 is listed with -7.0%

Copied from above (five entries):
SMILES	VDR inh
CCOC(=O)c1ccc(NC(=O)c2nc[nH]c2C(=O)NC)cc1	-18.2%
COC(=O)c1cn(C(=O)c2ccc(C)c(C)c2)c2ccccc12	17.1%
COc1cc(/C=C/C(=O)O)cc(S(=O)(=O)NCCCO)c1OC	-11.3%
COC(=O)c1sc(NC(=O)c2cccc([N+](=O)[O-])c2)c(C(N)=O)c1C	-25.6%
CCOC(=O)c1ccc(NC(=O)CS(=O)(=O)c2cn(CC)c3ccccc23)cc1	15.6%

More compounds follow:
SMILES	VDR inh
Cc1cc(C(=O)NCCC2=CCCCC2)ccc1[N+](=O)[O-]	2.4%
Cc1cc(F)ccc1N1CCC(N2CCN(C)C(CCO)C2)CC1 (configuration not stated)	-10.5%
COC(=O)Nc1ccc(S(=O)(=O)N2CCCC(C(=O)N3CCCCC3)C2)cc1 (configuration not stated)	-8.8%
Cc1ccc(S(=O)(=O)N2CCN(C(=O)COC(=O)CSc3cc(C)ccc3C)CC2)c(C)c1	-6.0%
CCCN=Cc1ccc(O)cc1	-24.2%
Cc1cc(C)n(-c2nc(C)c(C)c(=O)n2CC(=O)Nc2ccc(OC(F)(F)F)cc2)n1	14.0%
CCCCOc1ccc(CC2CCC(=O)NC2=O)cc1 (configuration not stated)	-5.1%
CC(=O)c1c(C)[nH]c(C(=O)NCc2ccc(F)cc2)c1C	8.6%
O=C(O)c1ccc2c(=O)n3c(nc2c1)/C(=C/c1ccccc1OC(F)F)CC3	-30.7%
Cc1ccc(C(=O)N2CCN(CCNC(=O)C(=O)Nc3ccc(Cl)cc3)CC2)cc1	-7.0%
Cc1ccc(CCN2CC(C(=O)NC(C)C)CC2=O)cc1 (configuration not stated)	0.7%
N#Cc1ccc(CN(c2ccncc2)S(=O)(=O)c2ccccc2)cc1	2.6%
Cc1cccc(C)c1NC(=S)N1CC(C)OC(C)C1 (configuration not stated)	9.1%
O=C1NC(NS(=O)(=O)c2ccccc2)(C(F)(F)F)C(=O)N1Cc1cccnc1 (configuration not stated)	-7.3%
NC(=O)[C@H](Cc1cc2ccccc2s1)NC(=O)[C@@H]1CC2(CC(c3cccc(NC(=O)[C@@H]4CCC(=O)N4)c3)=NO2)CN1C(=O)/C=C/c1c(F)cccc1Cl (some centres not stated)	-20.8%
c1csc(C(c2nnnn2C2CCCCC2)N2CCN(c3nc4ccccc4s3)CC2)c1 (configuration not stated)	1.0%
COc1ccccc1CCNC(=O)c1cc(-c2ccccn2)nc2ccccc12	-0.1%
CCOCCCNS(=O)(=O)c1ccc(NC(=O)N2c3ccccc3Sc3ccccc32)cc1	-17.6%
CCOc1ccc(NC(=O)Nc2cc(C(C)C)c(O)cc2C)cc1	3.8%
COc1ccc2nc(NC(=O)CN(C)S(=O)(=O)c3cccs3)sc2c1	-4.6%
O=C(NCCc1ccccc1)C(=O)NCC1OCCN1S(=O)(=O)c1ccc(F)cc1 (configuration not stated)	-16.4%
CCN(CC)S(=O)(=O)c1cccc(NC(=O)C(=O)c2c(-c3ccccc3)cc3ccccn23)c1	-16.9%
COc1ccc(NC(=O)COc2ccc(-n3cnnn3)cc2)cc1OC	17.0%
O=C(Cc1ccccc1)NNc1ccc2ccccc2c1	-10.7%
O=C(OCc1nc2ccsc2c(=O)[nH]1)c1cc(Br)c(Br)s1	19.4%
CSc1nnc(N2C(=O)C(O)=C(C(=O)c3ccc(C)o3)C2c2ccc(C)cc2)s1 (configuration not stated)	-4.0%
CCCCC1=CC2=C(OC(C)=O)C(=O)C(C)(OC(=O)C3CCCC3)C(=O)C2=CO1 (configuration not stated)	?
Fc1ccc(CSc2ncnc3scc(-c4ccccc4)c23)cc1	-12.6%
Cc1csc(NC(=O)c2cncc(Br)c2)n1	-8.2%
CCCCn1c(N)c(N(CC)C(=O)CCNC(=O)NC23CC4CC(CC(C4)C2)C3)c(=O)[nH]c1=O	4.2%
COc1cccc(NC(=O)CN(C)C(=O)C23CC4CC(CC(Cl)(C4)C2)C3)c1	?
CCOC(=O)C(NC(=O)c1ccc(OC)cc1)(N1CCCC1=O)C(F)(F)F (configuration not stated)	3.7%
COc1ccccc1CNc1ncnc2c1cnn2-c1ccc(C)cc1	-9.0%
O=C(c1cccc(C(=O)N(c2ccccn2)C2CCCCC2)c1)N(c1ccccn1)C1CCCCC1	10.2%
Cc1cc(C)n(CC(=O)n2c(C)c(C)c3ccccc32)n1	10.5%
CCN(C(=O)c1coc(=O)c2ccccc12)c1cc(OC)ccc1OC	-11.6%
COc1ccc(CNC(=O)CSc2nc3cccnc3s2)cc1	-0.4%
COc1cc(/C=N/NC(=S)NCc2ccco2)cc(OC)c1OC	-5.2%
CCc1nn(CC(=O)NCCc2ccc(Cl)cc2)c(=O)c2cccn12	13.7%
COc1ccc(C)cc1NC(=O)CN1C(=O)COc2ccc(S(=O)(=O)N3CCCCC3)cc21	12.3%
O=C(CCCC(=O)c1ccccc1)Nc1ccc(O)cc1	23.8%
Cc1ccc(S(=O)(=O)N2CCN(C(=O)CCc3c[nH]c4ccccc34)CC2)cc1	-14.0%
CCOC(=O)/C(=C/c1ccc(OC)cc1)NC(=O)c1ccco1	11.0%
COc1ccc(N2CC(C(=O)Nc3nnc(SCc4ccccn4)s3)CC2=O)cc1 (configuration not stated)	-26.4%
COc1ccccc1N1CCN(C(=O)C(OC(C)=O)c2ccccc2)CC1 (configuration not stated)	-0.1%
COc1ccc2oc(C(=O)OCC(=O)N3CCCC3=O)c(C)c2c1	-7.2%
CCOC(=O)c1c(N)sc(C(=O)N(C)C)c1CN1CCOCC1	-8.6%
CCNC(=O)CC1SC(=Nc2ccccc2C)N(C)C1=O (configuration not stated)	-5.4%
CCc1cccc(C)c1NC(=O)CCS(=O)(=O)c1ccc2c(c1)oc(=O)n2C	-12.2%
O=C(Nc1ccccc1)c1snc2c(=O)[nH]cnc12	-1.5%
COc1ccc(N(C(=O)c2csnn2)C(C(=O)NC2CCCC2)c2ccccc2)cc1 (configuration not stated)	9.4%
COc1ccccc1CNC(=O)C(C)n1nc(C)n2c(cc3occc32)c1=O (configuration not stated)	?
NC(=O)CC(NC(=O)c1cccc(Br)c1)c1ccc(NC2CCN(Cc3ccccc3)CC2)c([N+](=O)[O-])c1 (configuration not stated)	-12.9%
COc1ccc(/C=C/C(=O)N(CC(C)C)CC(C)C)cc1Br	-9.6%
Cc1cc(-c2ccccc2C(=O)NCc2ccccc2)on1	3.2%
Cn1c(SCC(=O)N2c3ccccc3Sc3ccccc32)nc2ccccc21	7.1%
Cc1cccc(-c2noc(CCc3ccccc3)n2)c1	-12.1%
O=C(NCCN1CCOCC1)C(=O)NCC1OCCN1S(=O)(=O)c1ccc(Br)cc1 (configuration not stated)	-4.2%
CCN(CC)S(=O)(=O)c1cccc(C(=O)Nc2ccc(Cl)cn2)c1	10.4%
CC1=NN(C(=O)c2cccnc2)C(O)(C(F)(F)F)C1 (configuration not stated)	-21.7%
(more compounds)
SMILES	VDR inh
Cc1nnc(SCCn2c(N3CCC(C)CC3)nc3c2c(=O)n(C)c(=O)n3C)s1	-12.6%
CCn1cc(C(=O)OCC(=O)Nc2cc(Cl)ccc2OC)c(=O)c2ccc(C)nc21	-0.2%
Cc1ccc2[nH]c(=O)c(CN(Cc3cccs3)Cc3nnnn3CC3CCCO3)cc2c1 (configuration not stated)	-3.5%
COc1ccc2c(c1)[C@H]1[C@H](CO2)[C@H](c2ccccc2)[C@]2(C)C(=O)N(Cc3ccc(C)cc3)CC(=O)N12	-7.9%
CC(=O)Nc1ccc(-c2nnn(CC(=O)c3ccc(F)cc3)n2)cc1Cl	3.1%
Nc1c(NC(=O)CC[n+]2ccccc2)cccc1[N+](=O)[O-]	11.5%
C[C@H](CO)N1C[C@H](C)[C@@H](CN(C)Cc2ccncc2)Oc2c(NS(=O)(=O)c3cccs3)cccc2C1=O	-3.6%
CC(C)N1CCc2c(sc(NC(=O)c3cc4cc([N+](=O)[O-])ccc4s3)c2C(N)=O)C1	72.8%[activator]
COc1ccc(NC(=O)C2CCCCN2S(=O)(=O)c2ccc(F)cc2)cc1 (configuration not stated)	-4.9%
CC(=O)N1CCCc2cc(S(=O)(=O)N3CCCC(C(=O)Nc4cccc(Cl)c4C)C3)ccc21 (configuration not stated)	11.7%

Random excerpt: 4 entries already listed
SMILES	VDR inh
Nc1c(NC(=O)CC[n+]2ccccc2)cccc1[N+](=O)[O-]	11.5%
CC(=O)N1CCCc2cc(S(=O)(=O)N3CCCC(C(=O)Nc4cccc(Cl)c4C)C3)ccc21 (configuration not stated)	11.7%
COc1ccc2c(c1)[C@H]1[C@H](CO2)[C@H](c2ccccc2)[C@]2(C)C(=O)N(Cc3ccc(C)cc3)CC(=O)N12	-7.9%
CCn1cc(C(=O)OCC(=O)Nc2cc(Cl)ccc2OC)c(=O)c2ccc(C)nc21	-0.2%

In the list so far, 3 contain a COOH group.
SMILES	VDR inh
COc1ccc(NC(=O)/C(C#N)=C\c2ccc(-c3cc(C(=O)O)ccc3C)o2)cc1	17.8%
COc1cc(/C=C/C(=O)O)cc(S(=O)(=O)NCCCO)c1OC	-11.3%
O=C(O)c1ccc2c(=O)n3c(nc2c1)/C(=C/c1ccccc1OC(F)F)CC3	-30.7%
